KCNQ2 inh: KCNQ2 potassium channel inhibitors, primary screen, cell-based, CHO-K1, FluxOR thallium flux, B-score (AID 2156); 20 min; hits give low values; only compounds with negative scores are shown here; some inactives read as strong as hits; B-score at 10 µM; 310,000 tested, 1.1% active;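 active = fluorescence ratio B-score at most minus 3 library SDs, with starting brightness B-score within 2 library SDs, cut at about -5.5 in these data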
Target sequence (O88943 whole entry, looked up): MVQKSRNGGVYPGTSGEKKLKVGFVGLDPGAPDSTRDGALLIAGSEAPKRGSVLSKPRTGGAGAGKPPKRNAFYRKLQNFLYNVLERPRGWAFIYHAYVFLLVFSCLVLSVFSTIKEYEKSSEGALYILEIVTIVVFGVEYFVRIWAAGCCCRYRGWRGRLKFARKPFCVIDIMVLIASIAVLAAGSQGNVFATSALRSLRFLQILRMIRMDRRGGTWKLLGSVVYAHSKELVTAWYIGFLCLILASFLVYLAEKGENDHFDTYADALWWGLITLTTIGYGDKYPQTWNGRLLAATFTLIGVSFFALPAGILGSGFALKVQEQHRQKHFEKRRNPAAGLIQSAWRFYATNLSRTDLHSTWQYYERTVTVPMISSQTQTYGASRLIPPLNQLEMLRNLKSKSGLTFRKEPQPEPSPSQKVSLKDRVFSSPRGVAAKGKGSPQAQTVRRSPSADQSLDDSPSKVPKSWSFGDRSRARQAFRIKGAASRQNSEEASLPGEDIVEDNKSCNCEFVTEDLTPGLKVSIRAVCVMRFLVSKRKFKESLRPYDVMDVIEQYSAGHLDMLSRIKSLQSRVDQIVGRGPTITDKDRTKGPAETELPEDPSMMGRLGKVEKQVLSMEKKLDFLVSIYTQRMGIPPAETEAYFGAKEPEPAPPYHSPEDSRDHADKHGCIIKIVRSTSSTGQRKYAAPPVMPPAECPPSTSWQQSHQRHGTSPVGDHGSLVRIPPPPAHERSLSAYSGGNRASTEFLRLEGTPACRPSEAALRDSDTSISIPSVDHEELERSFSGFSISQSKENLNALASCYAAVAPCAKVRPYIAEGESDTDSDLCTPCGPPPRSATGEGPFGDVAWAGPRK
KCNQ2 inh baseline: recorded beside KCNQ2 inh, whose call it bears; B-score; measured here: initial fluorescence intensity artifact check;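 brightness before thallium and not channel activity; 0 = typical well and far values either way flag optical interference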
The depositor's hits bear a star; i = inactive. A portion of the library. The share of hits here may be higher or lower than overall.

SMILES	KCNQ2 inh	KCNQ2 inh baseline
O=C(c1ccncc1)N1CCN(C2CCCCC2)CC1	i	0.8
COc1ccc(NC(=S)Nc2cccc(Cl)c2)cc1OC	i	0.08
COc1cc2c(cc1NC(=O)CSc1ccccc1)oc1ccccc12	i	-0.16
CC(C)CNS(=O)(=O)c1ccc(CCC(=O)N2CCN(Cc3ccc4c(c3)OCO4)CC2)cc1	i	0.42
CCSc1cc(N2CCCC2)nc(-c2ccccc2Cl)n1	i	-0.32
COc1ccc(C(=O)NCCN2CCOCC2)cc1OC	i	-3
Cn1c(=O)c2c(=O)cc(N)[nH]c2n(C)c1=O	i	-0.19
Cc1nc(Nc2ccc(F)cc2)nc(Nc2ccc(F)cc2)c1[N+](=O)[O-]	i	0.12
CCCCN(C)C(=O)Cn1cnc2sc(C)cc2c1=O	i	-1.9
COc1ccc(OCC(=O)Nc2ccc3c(c2)nc(CCN2CCCC2)n3C)cc1	i	0.77
Cc1ccc(-c2nc(C#N)c(N3CCCCC3)o2)cc1	i	0.95
COc1ccc(S(=O)(=O)N2CCCC(C(F)(F)F)C2)cc1 (stereo not drawn)	i	-0.41
O=C(c1cnccn1)N(Cc1cccs1)C1(C(=O)NC2CCCC2)CCCCC1	i	1.1
NNC(=O)c1ccc(COc2ccc3ccccc3c2)cc1	i	-0.14
CN(C)c1cc[n+](CC(=O)c2ccc(-c3ccccc3)cc2)cc1	i	0.58
O=C(CC1N=C(Cc2ccccc2)NNC1=O)N/N=C/c1ccc([N+](=O)[O-])cc1 (stereo not drawn)	i	2.1
COc1ccc(CC(=O)n2[nH]c(=O)ccc2=O)cc1OC	i	-0.12
CC(C)(CNC(=O)/C=C/c1ccc(F)cc1)CNC(=O)/C=C/c1ccc(F)cc1	i	-0.01
COC(=O)c1ccc(COC(=O)CCC(=O)c2cccs2)cc1	i	0.36
S=c1[nH]nc(-c2ccccc2Br)n1Cc1ccccc1	i	0.26
O=C(O)C1CC1C(=O)N1CCN(c2ccc(Cl)c(Cl)c2)CC1 (stereo not drawn)	i	-0.92
Cc1ccc(-n2ncc3c2CC(C)(C)CC3NC(=O)CCN2CCCCC2=O)cc1 (stereo not drawn)	i	-1.4
CC1=CC2=NC(=O)/C(=C/c3cccn3Cc3ccccc3)C(=N)N2O1	i	0.29
C#CCOCCOCCOCCNc1nc(N2CCN(C(=O)[C@H]([C@@H](C)CC)n3cc([C@@H](N)CO)nn3)CC2)nc(N2CCN(C(=O)[C@H](CCCCN)n3cc([C@@H](N)C(C)CC)nn3)CC2)n1 (stereo partly drawn)	i	-0.27
Cc1ccc(S(=O)(=O)Nc2cc3c(C(=O)Nc4ccccc4)c(C)oc3c3ccccc23)cc1	i	1.9

Structural class: the entries above with a Cl atom.
SMILES	KCNQ2 inh	KCNQ2 inh baseline
COc1ccc(NC(=S)Nc2cccc(Cl)c2)cc1OC	i	0.08
CCSc1cc(N2CCCC2)nc(-c2ccccc2Cl)n1	i	-0.32
O=C(O)C1CC1C(=O)N1CCN(c2ccc(Cl)c(Cl)c2)CC1 (stereo not drawn)	i	-0.92

Remaining list, next part.
SMILES	KCNQ2 inh	KCNQ2 inh baseline
CCOC(=O)c1cc(CC)sc1NC(=O)Cc1ccccc1	-5.7*	-0.97*
COc1ccc(C)cc1NC(=O)N1CCC(CO)(CC2CCCCO2)CC1 (stereo not drawn)	i	-0.13
CCOc1ccc(CCNC(=O)COC(=O)c2cc([N+](=O)[O-])ccc2N2CCOCC2)cc1OCC	i	3.7
O=C(C[n+]1ccc(/C=N/O)cc1)N(Cc1ccccc1)Cc1ccccc1	i	3.6
CC1CCCN(S(=O)(=O)CCNC(=O)c2ccc3c(c2)OCO3)C1 (stereo not drawn)	i	0.42
Cc1csc(SCC(=O)c2c(N)n(C)c(=O)n(C)c2=O)n1	i	1.6
COc1ccccc1Cc1nnnn1CC(=O)O	i	-0.07
Cc1cc(C(=O)CCl)c(C)n1CC1COc2ccccc2O1 (stereo not drawn)	i	-1.8
COc1ccc(-n2ncc3c2CC(C)(C)CC3NC(=O)CN2CCOC2=O)cc1 (stereo not drawn)	i	1.4
O=C(CSc1ncn(-c2ccccc2)n1)Nc1nc2c(s1)CCCC2	i	-0.46
COc1ccc(N2C(=O)CC(Sc3nc4ccccc4s3)C2=O)cc1 (stereo not drawn)	i	1.4
CCOC(=O)c1c(NC(=O)C2=C(C)NC(=S)NC2c2ccccc2C(F)(F)F)sc(C)c1C (stereo not drawn)	i	0.34
CC(C)(C)NC(=O)/C(=C\C=C\c1ccccc1)NC(=O)c1ccc([N+](=O)[O-])cc1	i	-2.3
COc1ccc(Cl)cc1N(CC(=O)N1CCN(Cc2ccccc2)CC1)S(C)(=O)=O	i	1.2
Cc1ccc(C(=O)CCC(=O)OCC(=O)Nc2c(C)nn(-c3ccccc3)c2C)cc1	i	0.02
Cc1cc([N+](=O)[O-])nn1CC(=O)Nc1cccc2nonc12	i	1.5
CCOc1ncccc1C(=O)NCc1ccccc1Cl	i	-0.6
Cc1ccc(S(=O)(=O)NNC(=O)C2COc3ccccc3O2)cc1C (stereo not drawn)	i	0.74
Cc1csc(NC(=O)CSc2nnc(-c3ccoc3C)n2CCc2ccccc2)n1	i	1.1
Cc1ccc(OCCC(=O)OCC(=O)C(C)(C)C)cc1	i	0.76
COC(=O)/C(C(C)=O)=C(\C=C\N(C)C)N(C)C	i	4.8
CN(C)Cc1c(C(=O)N/N=C/C2CC=CCC2)nnn1-c1nonc1N (stereo not drawn)	i	-0.9
Cc1ccc(C)c(CN2CCCN(Cc3cc(C)ccc3C)S2(=O)=O)c1	i	-0.4
CC(C)=CCc1c(O)cc(O)c2c1OC(c1ccc(O)cc1)CC2=O (stereo not drawn)	-7.8*	-1.8*
COc1ccc(/C=N/NS(=O)(=O)c2ccc(NC(C)=O)cc2)cc1	i	-1.7
Next part.
SMILES	KCNQ2 inh	KCNQ2 inh baseline
CC(C)[C@H]1COCCS(=O)(=O)N1Cc1ccc(Cl)cc1	i	2.6
COC(=O)c1c(NC(=O)c2ccc(C)cc2)sc(Cc2ccccc2)c1C	i	-1.4
Cc1cccc2cc(COC(=O)C3CCCO3)c(=O)[nH]c12 (stereo not drawn)	i	-1.1
CCCCOc1ccc(C2C(C(=O)c3cccs3)=C(O)C(=O)N2CCN2CCOCC2)cc1 (stereo not drawn)	i	-1.2
CCC1(C)Cc2c(sc3nnn(Cc4ccccc4Cl)c(=O)c23)CO1 (stereo not drawn)	i	1.1
CC(C)C(=O)Nc1cccc(NC(=S)NC(=O)c2ccc(Cl)cc2)c1	i	0.72
O=c1[nH]nc(Cc2ccc3ccccc3n2)c2ccccc12	i	0.44
O=C(CSc1nnnn1-c1ccccc1)NCc1cccs1	i	-0.43
O=C(Cc1csc(NC(=O)c2ccc(F)cc2)n1)NO	-5.7*	3.8*
O=C(CC(c1ccccc1)c1ccco1)Nc1nccs1 (stereo not drawn)	i	-1.1
O=C(NCc1ccc2c(c1)OCO2)C1CC(=O)N(CCc2ccc(Cl)cc2)C1 (stereo not drawn)	i	0.04
O=C(O)c1ccccc1Sc1c([N+](=O)[O-])cc(C(F)(F)F)cc1[N+](=O)[O-]	i	0.41
FC(c1nc2ccccc2[nH]1)C(F)(F)F (stereo not drawn)	i	-0.03
COc1ccc(Br)c(/C=N/NC(=O)COc2ccc(-c3ccccc3)cc2)c1	i	0.89
C=CCSc1ccccc1C(=O)Nc1ncn[nH]1	i	0.67
CCCCc1ccc(N=N/C(C(=O)Nc2ccccc2OC)=C(/C)O)cc1	i	-1.8
O=C(NC1CCCc2ccccc21)C1CCN(S(=O)(=O)c2ccccc2F)CC1 (stereo not drawn)	i	0.03
COCCn1c(N)c(NCc2ccccc2)c(=O)[nH]c1=O	i	0.3
CCNC(=O)C(=O)Nc1ccc2c(c1)N(S(=O)(=O)c1cccs1)CCC2	i	-0.68
CC(OC(=O)C1CCCO1)C(=O)NC1CCCC1 (stereo not drawn)	i	-3.6
CC(=O)N1CCc2cc(S(=O)(=O)NC(Cc3ccccc3)C(=O)Nc3cc(C)ccn3)ccc21 (stereo not drawn)	i	0.09
CCn1cc(C(=O)O)c(=O)c2cc(F)c(N3CCN(C(=S)NC(=O)c4ccc(Br)cc4)CC3)cc21	i	0.01
O=C(O)C1CCN(c2ccccc2[N+](=O)[O-])CC1	i	1.6
O=S(=O)(c1ccc(Br)cc1)N1CCN(Cc2ccco2)CC1	i	-0.34
COc1ccc(CCNC(=O)C(=O)NCC2CCNCC2)cc1OC	i	-0.3
(next part)
SMILES	KCNQ2 inh	KCNQ2 inh baseline
Cc1ccc(-n2nc3ccc(NC(=O)C(C)C)cc3n2)cc1	i	0.58
O=C(O)Cc1sc(NCCc2ccccc2)nc1-c1ccc(F)cc1	i	0.99
CCC(=O)N1c2ccccc2-c2nnc(SC)nc2OC1c1ccc(OC)c(OC)c1 (stereo not drawn)	i	1.1
Cc1cnc(NC(=O)C2CCC(C(C)(C)C)CC2)s1 (stereo not drawn)	i	0.85
CCOC(=O)c1ccc(N2C=C(C(=O)OC)C(c3ccc(OC)c(O)c3)C(C(=O)OC)=C2)cc1	i	-1.1
Cc1[nH]c(-c2ccc(F)cc2)cc1C(=O)N1CCN(c2ccccc2F)CC1	i	-1.2
COC(=O)c1cc(NC(=S)Nc2cc(Cl)cc(Cl)c2)cc(C(=O)OC)c1	i	0.33
CN(Cc1cccs1)CC(O)COCc1ccco1 (stereo not drawn)	i	1.9
COc1cc(CC(=O)Nc2sc3c(c2C(N)=O)CCCC3)cc(OC)c1OC	i	-1.2
COc1ccc(CC(=O)O/N=C(\N)c2ccc(OC)cc2)cc1	i	-0.02
O=[N+]([O-])c1ccc(-c2csc(N3CCCCCC3)n2)cc1	i	0.32
CCOc1ccc(C(=O)NCc2ccccn2)cc1	i	-0.09
Cc1ccc(S(=O)(=O)N(C)c2nc3ccccc3n3c(C(C)C)nnc23)cc1	i	-0.21
O=C(NCCCN1CCCC1=O)C(=O)Nc1cccc(F)c1	i	1.6
Cc1cccc(NC(=O)C2CC(=O)n3ncnc3N2)c1 (stereo not drawn)	i	1.8
COc1ccc(C(=O)N/C(=C\c2ccco2)C(=O)NCc2ccco2)cc1	i	1.4
CCc1nn2cc(C(=O)c3cc(Cl)ccc3O)cnc2c1-c1ccc(F)cc1	-5.6*	-0.45*
O=C(COc1ccc(F)cc1)Nc1cc(S(=O)(=O)N2CCCCC2)ccc1N1CCCCC1	i	0.35
C=CCn1c(C)cc(C(=O)Cn2c(C(C)O)nc3ccccc32)c1C (stereo not drawn)	i	0.03
NC(N)=N/N=C/c1ccc2cccc(OCc3ccccc3)c2n1	i	-1.5
CCN(C(=O)CCS(=O)(=O)c1cccc2nsnc12)c1cccc(C)c1	i	-0.84
CCc1ccc(NC(=O)CN(C)S(=O)(=O)c2ccc3[nH]c(=O)oc3c2)cc1	i	-2.9
Cn1c(CN2CCCC2)nc2cc(NC(=O)C3CCCCC3)ccc21	i	2.1
CCOC(=O)C1(CCOC)CCN(Cc2nc(C(C)C)cs2)CC1	i	0.64
COC(=O)c1ccc(C(=O)N2CCCC(Nc3ccc(C(C)C)cc3)C2)nc1 (stereo not drawn)	i	0.25
Other records.
SMILES	KCNQ2 inh	KCNQ2 inh baseline
Cc1sc(NC(=O)CSc2nnc3scc(-c4ccccc4)n23)c(C#N)c1C	i	-0.28
Cc1cc(-n2c(C)cc(C(=O)CN3C(=O)NC4(CCCCCC4)C3=O)c2C)no1	i	0.75
COc1ccccc1/C=C(/CC(=O)NCc1ccccc1)c1nc2ccccc2s1	i	-0.32
Cc1ccccc1C(=O)NNC(=O)c1ccoc1C	i	-2.1
O=C(Oc1cccc([N+](=O)[O-])c1)N1CCCCC1	i	0.68
Cc1sc2nc(C)n(/N=C/N(C)C)c(=O)c2c1C	i	0.5
COc1ccc(-n2c(=O)[nH]cc(C(=O)N3CCCc4ccccc43)c2=O)cc1	i	-1.2
COc1ccc(OCC(=O)Nc2ccc(S(=O)(=O)N3CCOCC3)cc2)cc1	i	1.3
CCCCNC(=O)Nc1ncn[nH]1	i	0.19
Cc1ccc(SC(C)C(=O)NCC(C)C)cc1 (stereo not drawn)	i	0.79
CCCNCc1cc(OCC)c(OCC(=O)Nc2ccccc2)cc1Br	i	0.4
CCOC(OCC)c1cn(Cc2ccc(C(=O)c3ccccc3)cc2)nn1	i	-0.78
O=S(=O)(c1ccc(C2CCCCC2)cc1)N1CCCC1	i	0.53
O=C(CSc1nc(=O)n2ccccc2n1)NC1CCCCC1	i	2.1
Cc1ccccc1N1CC(C(=O)Nc2ccncc2)CC1=O (stereo not drawn)	i	-0.01
COc1ccc(/C=C(\NC(=O)c2ccccc2)C(=O)N/N=C/c2sccc2C)cc1	i	0.12
N#CCCCN1C(=O)C(=C(C#N)C#N)c2ccccc21	i	-0.12

In the list so far, these contain an NH in an aromatic ring:
SMILES	KCNQ2 inh	KCNQ2 inh baseline
Cn1c(=O)c2c(=O)cc(N)[nH]c2n(C)c1=O	i	-0.19
COc1ccc(CC(=O)n2[nH]c(=O)ccc2=O)cc1OC	i	-0.12
S=c1[nH]nc(-c2ccccc2Br)n1Cc1ccccc1	i	0.26
Cc1cccc2cc(COC(=O)C3CCCO3)c(=O)[nH]c12 (stereo not drawn)	i	-1.1
O=c1[nH]nc(Cc2ccc3ccccc3n2)c2ccccc12	i	0.44
FC(c1nc2ccccc2[nH]1)C(F)(F)F (stereo not drawn)	i	-0.03
C=CCSc1ccccc1C(=O)Nc1ncn[nH]1	i	0.67
COCCn1c(N)c(NCc2ccccc2)c(=O)[nH]c1=O	i	0.3
Cc1[nH]c(-c2ccc(F)cc2)cc1C(=O)N1CCN(c2ccccc2F)CC1	i	-1.2
CCc1ccc(NC(=O)CN(C)S(=O)(=O)c2ccc3[nH]c(=O)oc3c2)cc1	i	-2.9
COc1ccc(-n2c(=O)[nH]cc(C(=O)N3CCCc4ccccc43)c2=O)cc1	i	-1.2
CCCCNC(=O)Nc1ncn[nH]1	i	0.19

Screening data deposited in PubChem by Johns Hopkins Ion Channel Center.
